# Bioassay records (PubChem)
# Ecoli growth – blocks Escherichia coli growth | OD600, 23 h; stronger effect = lower value | OD600 absorbance (no concentration beside the values) | 330,000 compounds, 0.21% hits;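 active = OD600 absorbance below the run mean of sample wells minus 3.6 SD, in any replicate, cut at about 0.56 in these data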;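 also: stock transfer was 300 nL into about 60 µL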
# LANA-H2A inh – blocks KSHV LANA binding to histone H2A/H2B | Q9QR71 | cell-free LANA-H2A/H2B peptide, fluorescence polarization | inhibition, % (test concentration not listed) | 320,000 compounds, 0.6% hits; in the data active = inhibition mostly above about 10%, no sharp cut-off; inactive = mostly below about 6.7%;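 also: stock transfer was 7.5 nL into about 10 µL; 0% = median of vehicle wells and 100% = median of positive control wells; one replicate is shown; the record names a cut of 25% in any replicate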
# UCH37 inh – inhibitors of human deubiquitinating enzyme UCH37; Q9Y5K5; purified proteasome/UCH37, Ub-AMC cleavage fluorescence; inhibition, % (test concentration not listed); 330,000 compounds, 0.33% hits;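 active = mean of two replicates above 20%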;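 also: 0% = compound-free wells with enzyme and 100% = wells lacking proteasome; stock transfer was 100 nL into about 20 µL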
# Target sequence (Q9Y5K5 whole entry, looked up): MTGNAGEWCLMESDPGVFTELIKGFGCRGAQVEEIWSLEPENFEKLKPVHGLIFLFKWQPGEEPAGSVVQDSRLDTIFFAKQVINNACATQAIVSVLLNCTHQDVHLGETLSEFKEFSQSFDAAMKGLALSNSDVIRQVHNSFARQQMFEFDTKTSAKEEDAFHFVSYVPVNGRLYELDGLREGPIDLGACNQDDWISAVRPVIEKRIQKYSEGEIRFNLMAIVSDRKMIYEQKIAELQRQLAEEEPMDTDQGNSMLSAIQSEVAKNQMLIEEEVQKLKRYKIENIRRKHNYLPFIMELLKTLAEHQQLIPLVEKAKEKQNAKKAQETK
#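 Material: human UCH37 enzyme supplied as purified proteasome complex. Measure: % inhibition of Ub-AMC cleavage fluorescence. Medium: pH 7.4 Tris-HCl (50 mM) with ovalbumin, ATP-MgCl2, DTT. Times: 30 min preincubation with enzyme, 25 min cleavage at room temperature. Detection: AMC fluorescence intensity at 355/460 nm.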
# Bfl-1 A1 inh – inhibitors of the anti-apoptotic protein A1, read as caspase activation; MEF A1-2A-BIM cells, Caspase-Glo 3/7 luminescence, 3 h; percent of clofoctol response, vehicle zero; 330,000 compounds, 0.066% hits; caspase activation, % (concentration not given with the values);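 active = over half of replicate activation scores above 10%, or exactly half above 10 with the replicate mean above 10; inconclusive = replicate mean below 10 yet half the replicates above 10; inactive = over half of replicates below 10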;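 also: wells of about 30 µL received 50 nL stock; many hits fall short of the cut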
# Vif TR-FRET – inhibitors of Vif binding to APOBEC3G peptide, primary screen, biochemical, TR-FRET, GST-Vif 1-94, biotin-A3G peptide, dose response retest (AID 1117319); TR-FRET GST-Vif / biotin-A3G peptide binding; higher % means a stronger effect; test concentration not given here; strong numbers were not always called active; inhibition, %, or IC50 in µM where a hit was titrated; 260,000 compounds, 0.57% hits;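 active = above the screen mean plus three standard deviations and confirmed in dose response; inconclusive = results disagree or hit not tested in dose response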;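 also: Vif residues 1-94 fused to GST binding biotinylated APOBEC3G peptide 110-148; 0% = full assay without inhibitor and 100% = GST in place of GST-Vif; retest series ran down from 100 µM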
# B2AR ag – activates human beta-2 adrenergic receptor causing internalization; P07550; Am2.2-beta2AR cells, FAP receptor internalization, flow cytometry; reference of the scale not given here; response, % (concentration not given with the values); 340,000 compounds, 0.43% hits; AID 504454;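 active = response above a set limit, near 3 SD of response in nonfluorescent compounds, cut at about 42% in these data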;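 also: stock transfer was 100 nL into about 11 µL; a reference agonist was the positive control; negative values mostly stem from fluorescent compounds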
# HNF4A DNA FP – change in binding of human HNF4 alpha to DNA; HNF4a-FITC DNA binding, fluorescence polarization, 1 h; 360,000 compounds, 0.3% hits; activity change, % at 10 µM; AID 1224865; in the data active = activity change above about 30%, passing the limit was not always enough;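 also: controls were the assay level and a saturating level of protein; the project sought stronger binding though the title names inhibitors; some compounds called inactive have numbers as strong as hits; positive values seem to mean higher polarization but the record does not say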
# Target sequence (P41235 whole entry, looked up): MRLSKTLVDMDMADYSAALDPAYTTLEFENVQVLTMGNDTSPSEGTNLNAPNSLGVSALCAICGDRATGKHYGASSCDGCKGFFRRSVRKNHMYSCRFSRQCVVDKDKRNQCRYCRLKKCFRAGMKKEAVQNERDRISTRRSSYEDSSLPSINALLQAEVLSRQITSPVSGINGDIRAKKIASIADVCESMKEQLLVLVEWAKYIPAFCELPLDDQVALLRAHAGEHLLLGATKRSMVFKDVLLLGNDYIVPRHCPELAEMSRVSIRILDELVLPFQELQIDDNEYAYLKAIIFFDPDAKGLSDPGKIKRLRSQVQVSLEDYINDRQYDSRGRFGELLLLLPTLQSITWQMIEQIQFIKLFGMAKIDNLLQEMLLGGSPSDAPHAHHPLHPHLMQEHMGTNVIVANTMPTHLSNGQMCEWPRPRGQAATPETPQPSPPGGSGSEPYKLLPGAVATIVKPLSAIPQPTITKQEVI
# * hit, by the source's call; ? = inconclusive; . = not tested or not shown; & = joins results of further samples.
# Every second line gives: Ecoli growth, LANA-H2A inh, UCH37 inh, Bfl-1 A1 inh, Vif TR-FRET, B2AR ag, HNF4A DNA FP
- CC(C)CC(NC(=O)OC(C)(C)C)c1cn([C@@H](Cc2cc3ccccc3[nH]2)C(=O)N2CCN(C(=O)OC(C)(C)C)CC2)nn1 (stereo partly specified)
    ., 6.6, 2.0, 0.6, 23%, 14, 3.4
- CC1(C)CC(c2nc(-c3ccc(Cl)cc3)cs2)CCS1 (stereo unspecified)
    0.73, 1.2, 0.5, -0.4, 0%, -6, 1.4
- COc1ccc(NC(=O)NCCCN2CCCCC2C)cc1 (stereo unspecified)
    0.7, 6.0, -0.4, 0.9, 9%, 1, -1.3
- CN(Cc1ccccc1)C(=O)COC(=O)c1cc(NS(=O)(=O)c2cccs2)ccc1O
    0.66, 4.1, -3.5, 0.4, ., -17, -2.0
- COC(=O)c1c(-c2snnc2C)n[nH]c1C
    0.68, 6.1, 0.0, -0.1, -8%, 2, -2.2
- Cc1ccc2c(c1)N(CC(=O)Nc1ccccc1F)C(=O)CO2
    0.74, -3.4, 1.6, 1.5, ., -8, 2.9
- O=C(Nc1nc(-c2ccccn2)cs1)c1ccc([N+](=O)[O-])o1
    0.6, 4.0, 4.6, -0.1, 29%, 8, -6.1
- Cn1cc(SCC(=O)Nc2ccc3c(c2)OCO3)c2ccccc21
    0.69, 0.3, 3.2, -0.5, 13%, 11, 1.9
- Cc1ccc2nc(Cl)c(/C=N/n3c(C)nnc3C)cc2c1
    ., 0.3, ., -0.7, ., -4, -1.1
- Cc1csc(NC(=O)CSc2ccccc2F)n1
    0.65, -2.5, -0.5, -1.3, -4%, 0, -1.2
- O=C(Nc1ccc2c(c1)OCO2)c1cccc(S(=O)(=O)N2CCOCC2)c1
    0.68, 1.7, 2.0, -1.2, 1%, -8, -0.6
- CCC(C)(C)c1ccc(OCCCC[n+]2ccc(C)cc2)c(C(C)(C)CC)c1
    0.58, 7.5, 27*, 0.3, ., ., .
- Cc1cc(Br)c(S(=O)(=O)NCc2ccncc2)cc1C
    0.64, 3.1, 4.3, 0.4, ., 2, 3.1
- C/C(=N\NC(=O)COc1ccc(C(C)(C)C)cc1)c1ccccc1
    ., -0.7, ., 0.1, 30%, -4, -2.4
- CCS(=O)(=O)N1CCC(C(=O)OCC(=O)c2ccc(Br)cc2)CC1
    0.75, -1.1, 2.8, 0.7, ., -3, 0.5
- CC1CCCN(CCOCCOc2ccc(Br)cc2Cl)C1 (stereo unspecified)
    0.69, -3.8, 3.5, -0.3, -4%, 18, 2.1
- CC(C)n1nnnc1SCC(=O)NCc1ccc2c(c1)OCO2
    0.74, 2.7, 0.2, 1.9, 3%, 6, 1.7
- O=C(N/N=C\c1ccc(S(=O)(=O)O)o1)c1ccc2c(c1)OCO2
    ., 6.8, ., 0.8, -5%, 2, -1.9
- Nc1cc(N)nc(SCC(=O)c2ccc3c(c2)NC(=O)CO3)n1
    0.63, -5.5, -0.3, 0.4, -14%, 7, -2.1
- COc1ccccc1Oc1ccc(N/C=C/C(=O)c2ccc(C)o2)cc1
    0.73, -4.8, -0.3, -3.4, ., 3, 11
- COc1cc(/C=C2\SC(=S)N(CCC(=O)Nc3ccccc3)C2=O)cc(OC)c1OC
    0.73, -3.5, 8.9, -0.5, -4%, 3, 19
- Cc1ccc2c(C)c(C(=O)N(C)C(C)c3ccon3)oc2c1C (stereo unspecified)
    ., 0.9, ., -0.5, ., -10, -5.6
- O=C(C[n+]1ccccc1)Nc1cc(C(F)(F)F)ccc1Cl
    0.7, ., -0.4, -0.1, -7%, 0, 0.6
- CCCCn1c(SCC(=O)N2CCOCC2)nnc1-c1cccs1
    0.69, 6.5, 0.5, -0.4, ?, -8, 0.1
- CCOc1cc(N2CCOCC2)c(OCC)cc1NC(=O)CN1C(=O)NC2(CCCCC2C)C1=O (stereo unspecified)
    0.7, ., 3.6, ., -1%, -6, 3.4
- O=C1[C@@H]2Cc3c([nH]c4ccccc34)C(c3cccc(Br)c3)N2C(=O)CN1C1CCN(Cc2ccccc2)CC1 (stereo partly specified)
    0.65, 2.1, -0.9, -0.1, -3%, 38, 2.7
- O=[N+]([O-])c1nn(-c2ccc3c(c2)OCCO3)n(O)c1=Nc1ccccc1
    0.65, 3.7, 3.0, -0.2, 7%, 4, -1.3
- CC(Oc1cccc(Cl)c1)C(=O)Nc1ccccc1N1CCCC1 (stereo unspecified)
    0.61, 3.7, 1.9, -0.9, 0%, 30, 5.3
- O=C(CCc1nnc(Cc2cccc(C(F)(F)F)c2)o1)NCC(F)(F)F
    0.7, 3.3, 2.0, -0.1, 0%, -3, -0.8
- CCOC(=O)c1c(NC(=O)c2cccs2)sc(C(=O)N2CCOCC2)c1C
    0.66, 1.3, -82, 0.3, ., 5, 1.5
- COc1ccc(NC(=O)Cn2nnc(-c3ccccc3F)n2)cc1Cl
    0.73, 2.2, -0.3, 0.5, -4%, -1, 2.0
- CSc1nnc(Cc2sc(-c3ccccc3)nc2-c2ccccc2)o1
    0.79, -5.5, 4.9, -5.9, -6%, -13, -1.8
- O=C(Nc1nc2c(ccc3ccccc32)s1)c1cc([N+](=O)[O-])ccc1N1CCOCC1
    0.77, 5.0, 2.5, 0.7, -2%, ., .
- CCOC(=O)[C@H]1[C@H]2COc3ccccc3[C@@H]2N2C(=O)CNC(=O)[C@@]12C
    ., 0.5, 2.8, -0.6, ., 5, 1.1
- Cc1ccc(CCNC(=O)C2CCCN(C(=O)c3cc4sccc4n3C)C2)cc1 (stereo unspecified)
    0.7, 6.3, -0.2, 0.2, 12%, -3, 3.0
- Cc1cc(C(=O)Nc2cccc3ncccc23)no1
    0.66, 2.0, 1.7, -0.6, 4%, 1, 6.8
- Cc1cccc(/C=C2\Sc3ccc(C(=O)N4CCC(C)CC4)cc3N(C)C2=O)c1
    0.69, 0.8, -1.7, -0.5, ., 2, 2.5
- O=C(COC(=O)/C=C/c1ccccc1)NCCNC(=O)COC(=O)/C=C/c1ccccc1
    0.64, 0.8, -2.6, 0.6, -3%, -12, 0.0
- Cc1ccc(C)c(S(=O)(=O)N2CCN(CC(=O)Nc3ccc4c(c3)OCCO4)CC2)c1
    0.72, 0.0, 3.2, -0.4, -3%, 0, -0.1
- CC(=O)O/N=C(\N)c1cnn2c(C(F)(F)F)cc(C(F)(F)F)nc12
    ., 0.1, ., 0.2, -5%, 0, -2.3
- CCOc1ccccc1NC(=O)C1CCN(S(=O)(=O)c2c(C)nn(C)c2C)CC1
    0.71, -5.4, -4.6, 0.4, 1%, -8, 7.5
- COc1ccc(NC(=O)C2CCC(CNS(=O)(=O)c3cccs3)CC2)cc1OC (stereo unspecified)
    0.68, 1.8, -3.0, -0.1, ., -6, -0.4
- COc1ccc(NC(=S)NCCc2c[nH]c3ccccc23)cc1
    0.68, -11, 3.2, 0.5, -1%, -1, -1.6
- CS(=O)(=O)Nc1ccc(C(=O)NCc2ccccn2)cc1
    0.64, -2.1, 5.0, -0.7, 17%, 3, -2.3
- Cc1ccc(N(CC(=O)NC(C)c2ccccc2)S(=O)(=O)c2cccs2)cc1 (stereo unspecified)
    0.67, 0.7, 0.7, 0.2, -2%, 1, -2.0
- CCC(=O)NNC(=O)Cc1c(C)n(C(=O)c2ccc(Cl)cc2)c2ccc(OC)cc12
    0.71, 1.0, 3.8, -0.1, 0%, -5, 0.8
- COc1ccc(/C=N/NC(=O)CSc2n[nH]c(=O)[nH]c2=O)cc1
    ., 6.8, ., -0.3, ., -10, 2.5
- COc1ccc(Cl)cc1NC(=O)N1CCN(CCc2ccccc2)CC1
    0.66, 0.0, 2.6, 0.5, 0%, 1, -5.1
- CC(C)(C)C(=O)c1cn(CC(=O)O)c2ccccc12
    0.66, -1.6, 1.5, -0.1, -1%, 7, 0.7
- CCN(CC)S(=O)(=O)c1cccc(C(=O)OC2CC(C)OC2=O)c1 (stereo unspecified)
    0.68, 0.1, 1.5, 2.0, 5%, 5, -0.9
- Cc1ccnc(SCC(=O)c2ccc(Br)cc2)c1C#N
    0.68, -10, 0.3, 0.1, -229%, -22, 3.9
- CCN1C(=O)C(CC(=O)Nc2ccc(F)cc2)N(Cc2cccs2)C1=S (stereo unspecified)
    0.66, 4.2, 0.3, 0.0, ., -15, 2.6
- NC(=O)C1Cc2ccccc2CN1S(=O)(=O)c1cccs1 (stereo unspecified)
    0.64, -2.1, 1.1, -0.6, -4%, -6, 2.8
- Cc1ccc(Nc2nc(CSc3nnc(-c4cccnc4)n3-c3ccccc3C)cs2)cc1
    0.7, -2.3, 3.5, -0.2, 0%, -17, 4.8
- COC(=O)[C@]1(Cc2ccccc2)N[C@H](CN(C)C(=O)COc2ccccc2)[C@@H]2C(=O)N(Cc3ccccc3)C(=O)[C@@H]21
    0.73, ., 4.1, -0.1, ., 1, 0.1
- CC1=C(C(=O)OC2CCCCC2)C(c2ccccc2Br)NC(=O)N1 (stereo unspecified)
    0.66, -3.3, 7.0, -0.3, -6%, 2, -0.3
- Cc1nc2sc(C(c3ccco3)N3CCOCC3)c(O)n2n1 (stereo unspecified)
    0.67, 5.1, 4.9, 0.1, 6%, 1, 0.2
- O=c1cc(CN2CCN(c3cccc(Cl)c3)CC2)c2cc(O)c(-c3ccccc3)cc2o1
    0.77, -0.3, 0.1, 2.1, 22%, 7, 4.0
- O=C(CC1S/C(=N/N=C2CCCCCC2)NC1=O)Nc1ccccc1F (stereo unspecified)
    0.65, ., 1.6, ., ., 3, -0.2
- O=S(=O)(Nc1nc2ccc(S(=O)(=O)N3CCCCC3)cc2s1)c1ccccc1
    0.74, 2.0, 2.7, 0.1, 19%, 7, 0.2

# Next part
# Every second line gives: Ecoli growth, LANA-H2A inh, UCH37 inh, Bfl-1 A1 inh, Vif TR-FRET, B2AR ag, HNF4A DNA FP
- COc1ccc(-c2csc(NC(=O)CSc3nnnn3C)n2)c(OC)c1
    0.62, ., 2.1, 0.1, 9%, 6, -2.2
- Cc1cccc2sc(NC(=O)CSc3cn[nH]n3)nc12
    0.67, -0.4, 0.5, -1.3, ., 5, -0.2
- CC(C)(C)c1cccc(C2(O)C(=O)c3ccccc3C2=O)c1O
    0.66, -2.9, 5.2, 0.2, -3%, 5, -0.2
- Cc1nc(-c2ccc(Cl)cc2)sc1C1(C)CC(c2ccccc2F)=NO1 (stereo unspecified)
    0.69, 3.8, 2.6, -0.7, 4%, -2, -0.2
- COc1ccc(C2=NN(C(=O)CN3CCCCC3)C(c3ccc(C)cc3)C2)cc1 (stereo unspecified)
    0.67, -1.8, -1.5, 0.5, 3%, -6, -2.0
- CSc1ccc(C2C(C#N)=C(N)Oc3cc4c(cc32)OCO4)cc1 (stereo unspecified)
    0.66, 5.4, 0.9, 1.5, 12%, 1, 3.3
- CCCCOP(=O)(c1ccc(N(C)C)cc1)C(O)c1cccnc1 (stereo unspecified)
    0.7, 0.8, 1.7, -0.2, 0%, 4, -2.9
- CC(Nc1cccc([N+](=O)[O-])c1)C(=O)Nc1ccc(S(=O)(=O)N2CCCC2)cc1 (stereo unspecified)
    0.67, ., 2.4, ., 1%, -1, -2.3
- Cc1ccc(NC(=O)C2CCN(C(=O)c3ccco3)CC2)cc1C
    0.6, -3.7, 3.3, 0.3, ., 1, 1.4
- C[C@H]1CN=C(N(C)C)N1CCc1ccccc1
    ., -2.8, 1.9, 0.2, ., -8, -2.9
- CCCCC(c1nnnn1CCOC)N1CCN(c2cccc(OC)c2)CC1 (stereo unspecified)
    0.68, ., 0.4, ., 0%&19%, -6, -1.8
- NC(=O)NC(=O)COC(=O)c1ccccc1Oc1ccccc1
    0.72, -2.0, 3.3, 1.0, 9%, 5, 2.3
- CCn1c(SCC(=O)NCc2cccs2)nc2c1c(=O)n(C)c(=O)n2C
    0.68, 1.1, 4.2, 0.5, 28%, 3, -0.4
